From PubChem
Menin-MLL FL inh – displaces fluorescein MLL peptide from human menin | Fluorescence polarization, fluorescein-MLL peptide displacement from menin | FP activity change, % at 61.4 µM | 290,000 tested, under 10 active | AID 1766; inconclusive = falling polarisation curve, or a change in total fluorescence; inactive = total fluorescence flat and polarisation flat or rising; no compound was filed as active; the % refers to the polarisation; negative = inhibition;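 also: % of control where 0% means no effect; inhibitors lower the polarisation; unlabelled MLL peptide was the positive control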
CtBP-E1A blk – inhibitors of CtBP/E1A interaction; AlphaScreen GST-E1A/His-CtBP binding, 1536-well; stronger effect = lower value; control for the full effect not named in the record; AID 651724; activity change, % (no concentration beside the values); 340,000 tested, 0.49% active; in the data active means activity change below about -65%; inconclusive means about -30% to -65%; inactive means above about -30%; also: % is scaled to controls: 0 for no effect and ±100 for the full control effect; compound concentration not given in the record
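AlphaScreen with 125 nM GST-E1A and 125 nM His-CtBP (5X stocks) in Tris pH 8.0, 300 mM NaCl, BSA, Tween 20, TCEP. Compounds preincubated 2 h at 37 deg C, then glutathione donor/nickel acceptor beads added for 1 h at 37 deg C in dark.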
gsp antagonist – antagonizes gsp, the McCune-Albright syndrome mutation; AID 624288; 340,000 tested, 0.4% active; gsp-mutant cells, cAMP HTRF, 30 min; control for the full effect not named in the record; Potency, µM (highest dose often 76.9 µM), for the others: top-dose activity change, negative = inhibition, actives largely listed as inhibitors; active = falling curve of any shape with a large fitted effect; inconclusive = falling curve, mostly with a smaller effect; inactive = flat or rising curve; cell line not stated here;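 also: intracellular cAMP measured with PDE inhibitor Ro 20-1724 present during compound exposure; potency is read from the fitted curve at half-maximal effect; % is scaled to controls: 0 for no effect and ±100 for the full control effect; nearly all actives have a fitted effect of over 65% in size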
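Cells in G418 medium, seeded 16-24 h, 37C; buffer exchange to DPBS + 1 mM CaCl2, 0.5 mM MgCl2, 0.05% BSA; cpds in DMSO + […] (300 uM stock), 30 min 37C; HTRF cAMP detection.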
Sfp inh – blocks B. subtilis Sfp PPTase activity | Potency, µM, without a hit: max response, negative = inhibition, usual class: inhibitors | Biochemical Sfp PPTase activity, qHTS | 310,000 tested, 3.5% active; active = well fitted inhibition curve with a large enough effect; inconclusive = small, poorly fitted or top-dose-only effect, or another doubt; inactive = no such curve, though single readings can be large or run the other way;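 also: the enzyme is Sfp with the accession as filed and its product quenches rhodamine fluorescence; potency is read from the fitted curve at half-maximal effect; 0% = enzyme reaction without inhibitor and -100% = no enzyme wells; top concentration of the series not given in the record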
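Compounds were incubated with enzyme (final 15 nM) for 15 min at room temperature before substrate addition started the reaction. Fluorescence at 525 nm excitation, 598 nm emission was recorded immediately and after 30 minutes.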
gsp ag – activates gsp, the McCune-Albright syndrome mutation; gsp mutant cells, cAMP HTRF, 30 min; control for the full effect not named in the record; 340,000 tested, 0.13% active; Potency, µM (highest dose often 76.9 µM), for inactives: at the highest dose activation (cAMP increase), actives largely listed as activators; AID 624287; active = well fitted activation curve with a large enough effect; inconclusive = small, poorly fitted or top-dose-only effect, or another doubt; inactive = no such curve, though single readings can be large or run the other way; cell line not stated here;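 also: phosphodiesterase inhibitor Ro 20-1724 added with compounds to block cAMP breakdown; potency is read from the fitted curve at half-maximal effect; nearly all actives have a fitted effect of over 60% in size; about a fifth of the inactives were tested at one dose only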
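Cells in DMEM/10% FBS with G418 were pretreated with compounds in DMSO plus […] (300 uM stock) for 30 min at 37C. cAMP was measured by HTRF (cAMP-d2 plus anti-cAMP antibody-K) after 30 min at room temperature.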
TRPV1 PAM – potentiators of human vanilloid receptor 1 (TRPV1); 320,000 tested, 0.02% active; potentiation, % at 8.33 µM; Q8NER1; TRPV1-expressing cells, Fluo-8 calcium influx, capsaicin EC20 potentiation; host cell line not named in the record; control for the full effect not named in the record; active means potentiation above 80%; inconclusive means 30% to 80%; inactive means below 30%; also: 0% is about no effect
Target sequence (Q8NER1 whole entry, looked up): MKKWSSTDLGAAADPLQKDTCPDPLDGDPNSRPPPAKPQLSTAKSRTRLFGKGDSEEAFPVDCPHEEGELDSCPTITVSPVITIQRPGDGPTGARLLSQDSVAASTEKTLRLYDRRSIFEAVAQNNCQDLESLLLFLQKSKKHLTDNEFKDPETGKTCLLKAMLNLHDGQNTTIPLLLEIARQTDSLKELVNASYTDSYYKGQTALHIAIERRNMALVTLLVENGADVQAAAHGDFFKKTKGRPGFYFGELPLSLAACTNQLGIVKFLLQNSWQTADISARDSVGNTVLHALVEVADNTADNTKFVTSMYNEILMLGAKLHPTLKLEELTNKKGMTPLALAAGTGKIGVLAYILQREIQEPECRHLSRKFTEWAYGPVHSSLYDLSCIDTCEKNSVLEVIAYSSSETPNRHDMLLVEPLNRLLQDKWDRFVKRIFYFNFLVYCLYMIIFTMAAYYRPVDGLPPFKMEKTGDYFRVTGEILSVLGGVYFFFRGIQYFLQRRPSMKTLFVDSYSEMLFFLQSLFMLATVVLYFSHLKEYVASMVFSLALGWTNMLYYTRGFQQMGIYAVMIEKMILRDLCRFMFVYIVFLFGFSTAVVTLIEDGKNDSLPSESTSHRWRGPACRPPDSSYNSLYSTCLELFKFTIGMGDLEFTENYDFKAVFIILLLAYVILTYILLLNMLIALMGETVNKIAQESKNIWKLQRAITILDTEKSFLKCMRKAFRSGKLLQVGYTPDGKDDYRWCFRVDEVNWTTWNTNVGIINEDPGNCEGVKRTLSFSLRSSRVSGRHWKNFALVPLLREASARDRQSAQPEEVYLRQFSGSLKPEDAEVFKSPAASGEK
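Fluo-8 calcium influx in TRPV1-expressing cells, kinetic read (ex 480/em 520 nm). Compound added and read 3 min for agonist activity, followed by capsaicin at EC20 final and 2 min further read for enhancement.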
ClpP mod – qHTS Assay for Activators of ClpP | ATP-dependent Clp protease proteolytic subunit (Bacillus subtilis (strain 168)), P80244 | purified B. subtilis ClpP, FRET peptide cleavage, 20 min | Potency, µM (top dose mostly 57.5 µM), for the others: at the top dose activity change, negative = active | 340,000 tested, 1.9% active; active = well fitted falling curve with a large enough effect; inconclusive = small, poorly fitted or top-dose-only effect; inactive = no such curve, though single readings can be large or run the other way; also: potency is read from the fitted curve at half-maximal effect; the source files actives as falling curves though it sought activators and does not explain the sign; nearly all actives have a fitted effect of over 65% in size; many hits overshoot -100%
Target sequence (P80244 whole entry, looked up): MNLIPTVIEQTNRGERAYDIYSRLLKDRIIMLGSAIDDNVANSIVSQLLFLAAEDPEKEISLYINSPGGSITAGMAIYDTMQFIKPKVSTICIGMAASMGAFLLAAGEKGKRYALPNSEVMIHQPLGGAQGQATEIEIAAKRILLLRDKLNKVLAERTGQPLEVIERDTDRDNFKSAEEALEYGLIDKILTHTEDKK
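Purified B. subtilis ClpP, 10 microg/mL final in Tris/HCl pH8 with KCl, BSA, glycerol and Tween-20, cleaved an Abz/nitrotyrosine-quenched decapeptide. Fluorescence (ex 320, em 430) was read at 0 and 20 min at room temperature. Delta was normalized to 5.8 microM ADEP and DMSO/no-enzyme controls.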
The depositor's hits bear a star; ? = inconclusive; . = no result given; & = joins results of further samples; [ ] = another dose, or the depositor's remark. Hits appear at their usual frequency. Share with any hit: about 5.3%.

SMILES	Menin-MLL FL inh	CtBP-E1A blk	gsp antagonist	Sfp inh	gsp ag	TRPV1 PAM	ClpP mod
CC(=O)N1CCN(c2ccc(NCc3cccs3)cc2)CC1	0.0	-5	-13%	22µM*	23%	10	-1.1%
O=P(c1ccc2c(c1)OCCO2)(N1CCOCC1)N1CCOCC1	0.1	4	-8%	12%	-9%	.	0.0%
COc1ccc(CC(=S)N2CCOCC2)cc1OC	0.7	8	-11%	17%	-54%[inhibitor]	28	-1.1%
COc1ccc(O)c(-c2cc(-c3ccc(F)cc3)n[nH]2)c1	-1.6	-8	-14%	-4%	-20%[15.4 µM]	-5	.
CC1CCN(S(=O)(=O)c2ccc(S(=O)(=O)N3CCCC3)cc2)CC1	0.2	19	-11%	9%	20%[15.4 µM]	-4	-0.2%
CCc1c(C(C)S(=O)(=O)c2ccccc2)[nH]c(=O)n1CC (stereo not given)	-0.2	7	3%	50µM*	3%[15.4 µM]	-10	.
Cc1ccccc1NC(=S)N(CCN(C)C)C(C)c1ccccn1 (stereo not given)	1.9	-72*	14%	-4%	-70%[inhibitor]	-15	0.8%
Cc1ccccc1OCCOC(=O)c1ccc(S(=O)(=O)N2CCCC2)cc1	.	24	-13%	.	-42%[inhibitor]	15	-2.9%
Cc1cccc(N2C(=O)CC(N3CCN(Cc4ccc(Cl)cc4)CC3)C2=O)c1 (stereo not given)	1.9	5	10%	9%	-36%[inhibitor]	-3	1.1%
CC(NC(=O)COC(=O)C12CC3CC(CC(Br)(C3)C1)C2)c1ccccc1 (stereo not given)	.	9	-15%	.	0%	.	.
COc1ccc(CC(=O)OCC(=O)NC(=O)Nc2ccccc2F)cc1	.	10	14%	.	-28%	-1	5.5%
Cc1ccc(-c2cn3cccc(C)c3n2)cc1	-1.5	-14	1%	-15%	2%[15.4 µM]	-20	.
CC(C)n1cc(CN2CCC(n3nccc3NC(=O)CCCc3ccccc3)CC2)cn1	.	10	12%	8%	-1%	-8	1.2%
CC1CCCC/C1=N\NC(=S)Nc1cccnc1 (stereo not given)	-0.5	-2	7%	20µM*	1%	3	.
CCOC(=O)C1CCN(C(=O)CSc2ccccc2)CC1	0.7	4	-11%	17%	4%	-11	-1.3%
CC(C)NC(=O)NC(=O)COC(=O)Cc1ccsc1	5.0	7	14%	10%	-18%[15.4 µM]	-7	-10%
CSc1ccc(C(=O)N2CCc3ccc(NC(=O)c4ccccn4)cc3C2)cc1	.	1	32µM*	-6%	-64%[inhibitor]	-14	1.2%
O=C(NCCCNC(=O)c1ccc(Cl)cc1Cl)c1ccccn1	2.3	0	6%	15%	15%	-4	.
COc1ccc(-c2cc3nc(-c4ccccc4)cc(N4CCC5(CC4)OCCO5)n3n2)cc1	-0.2	31	-4%	-15%	2%	-10	7.1µM*
Cc1oc(-c2ccccc2F)nc1CS(=O)(=O)CC(=O)NC1CCCC(C)C1C (stereo not given)	.	.	-9%	8%	-23%	-12	-4.4%
FC(F)(F)c1ccc(-c2n[nH]c(=S)o2)nc1	2.1	4	?	-1%	21%	-10	.
CCN(CC)S(=O)(=O)c1cccc(C(=O)N[C@H](C(=O)NNC(=O)c2ccccc2)C(C)C)c1	5.9	10	2%	?	2%[15.4 µM]	-2	.
CCCCCOC(=O)C1=C(C)NC(=O)NC1c1ccccc1OCC (stereo not given)	0.3	-2	-9%	5%	-1%	-6	-0.6%
CCc1cc(=O)oc2c3c(cc(OCC(=O)Nc4cccnc4)c12)OC(C)(C)CC3	-0.9	-8	4%	-4%	.	-3	5.2%
Cc1cccc(C(=O)Nc2sc3c(c2C#N)CCCCC3)c1	4.4	2	-8%	-6%	-1%	-8	202%
COC(=O)c1sc(S(=O)(=O)NCC(=O)O)c(C(=O)OC)c1C	-1.4	3	-11%	3%	?	1	-1.8%
O=C(COC(=O)C1CC2CCCC(C1)C2=O)Nc1nc(-c2ccc(F)c(F)c2)cs1 (stereo not given)	.	-19	-1%	.	-13%	3	-2.1%
COc1cccc(N2CCN(CC(=O)N3CCN(S(=O)(=O)c4ccc(Cl)cc4)CC3)CC2)c1	.	3	-18%	.	-16%	-7	-2.5%
C=CCn1c(SCC2=C(C(=O)OCC)C(C)NC(=O)N2)nnc1C1CCCCC1 (stereo not given)	4.3	11	1%	0%	-16%	8	0.8%
COc1nc(N(c2ccccc2)c2ccccc2)nc(-n2ccnc2)n1	7.2	-1	2%	-3%	-41%[inhibitor]	24	-1.6%
CC(C)c1ccc(N(CC(=O)NC2CCCC2)C(=O)CCC(=O)Nc2nccs2)cc1	1.4	4	1%	7%	-14%	-9	.
CCOC(=O)N1CCN(S(=O)(=O)c2cc(Br)cc3c2N(C(C)=O)C(C)C3)CC1 (stereo not given)	3.0	3	5%	10%	-10%	-16	0.2%
COc1ccccc1N1CCN(S(=O)(=O)c2cc(C)sc2C)CC1	3.1	1	2%	9%	-41%[inhibitor]	-10	-0.3%
CCOC(=O)c1nnc2cc(-c3ccccc3)nn2c1C	0.2	7	-29%	-23%	?	?	1.2%
O=C(NCCNc1ccc(Cl)cc1[N+](=O)[O-])c1cccnc1	-2.2	-10	?	9%	-7%[15.4 µM]	-6	.
Cc1ccccc1-c1nc(CS(=O)(=O)CC(=O)NCCCN2CCOCC2)c(C)o1	-1.0	-2	7%	11%	2%	18	-1.9%
COc1ccccc1-n1c(SCC(=O)NC(C)(C)C)nc(O)cc1=O	1.2	1	0%	-15%	-4%	11	0.8%
Cc1ccc(-n2nc3c(=O)n(CCCC(=O)NCc4cccc(Cl)c4)nc(C)c3c2C)cc1	-2.2	.	?	1%	-24%	5	-5.0%
COc1cccc2oc3ccc(C#Cc4ccccn4)cc3c(=O)c12	2.2	6	-8%	0%	.	-8	4.3%
O=C(NCc1ccc2c(c1)OCO2)c1nc(Cn2cc([N+](=O)[O-])cn2)no1	-13	27	-3%	7%	2%[15.4 µM]	-17	.
Cc1c(NC(=S)NC(=O)c2cccc3ccccc23)cccc1C(=O)O	0.2	5	-6%	-3%	-6%	19	1.1%
O=C(CN(Cc1ccco1)C(=O)CNS(=O)(=O)c1ccccc1)NCc1ccccc1	6.8	-1	-20%	12%	-28%	?	0.7%
COc1ccc(CN2C(=O)c3cccnc3C2=O)cc1S(=O)(=O)N1CCCCC1C (stereo not given)	-9.0	.	29%	6%	7.1µM*	-1	-0.3%
COC(=O)c1ccc(CNC(=O)COC(=O)c2ccc(N(C)C)cc2)cc1	0.1	17	-20%	-8%	20%[15.4 µM]	-12	.
O=C(C1CCN(c2ncnc3c2nc2n3CCCCC2)CC1)N1CCN(c2cccc(Cl)c2)CC1	3.7	.	-5%	-2%	-3%	6	1.8%&-1.7%
COCCNC(=O)c1cc2cc(Cl)cc(Cl)c2oc1=O	15	4	-4%	-1%	19%[15.4 µM]	7	.
COc1cccc(C=Nc2ccc(N3CCOCC3)cc2)c1O	0.6	.	-18%	1%	-37%	6	1.0%
O=S(=O)(NC1CCN(Cc2ccccc2)CC1)c1cccc(S(=O)(=O)N2CCOCC2)c1	-1.1	-3	9%	5%	7%	7	-2.6%
Cc1ccc2oc(/N=C(\N)NC(=O)C(C)(C)C)nc2c1	0.2	-1	8%	20%	-1%[15.4 µM]	-3	.
CS(=O)(=O)/C(C#N)=C\c1cnc(S(=O)(=O)c2ccccc2)s1	?	.	.	3.5µM*	.	-9	.
CCCN(Cc1ccc(C)cc1)C(=O)c1ccc(CNS(=O)(=O)c2ccc(C(C)=O)cc2)cc1	.	-10	-15%	.	-48%[inhibitor]	14	-3.2%
O=C(NCc1cccnc1)c1cccc2c1C(=O)N(C1CCCCC1)C2	1.6	-2	13%	16%	-13%	-2	-0.3%
Cc1cc2cc(CN(CCCO)S(=O)(=O)c3cccc4nsnc34)c(=O)[nH]c2cc1C	3.9	-13	3%	-6%	-40%[inhibitor]	3	-2.4%
Cc1cc(N2C(=O)C3CC=CCC3C2=O)no1 (stereo not given)	1.5	0	16%	-4%	12%	-5	-0.3%
CC(C)N1CCC(N2CCN(C/C=C/c3ccc(F)cc3)CC2CCO)CC1 (stereo not given)	-1.5	-3	-3%	6%	-3%[15.4 µM]	-1	.
CC1=C(C)C(=O)C(CCCCC#CCCCC#CCO)=C(C)C1=O	1.7&4.4	?	-2%	?	.	-4	-1.1%
COc1ccc(/C=N\NC(=O)c2cccc([N+](=O)[O-])c2)cc1Cn1cc([N+](=O)[O-])cn1	-0.9	.	.	2%	.	-10	.
COC/C=C/C1=CC2=CC(=O)C(C)(OC(=O)c3cnc4ccccc4n3)C(=O)C2=CN1C1CCCCC1 (stereo not given)	1.1	.	.	-15%&-2%	.	17	.
O=C1COc2ccc(C(=O)COC(=O)c3sc4ccccc4c3Cl)cc2N1	8.4	4	-6%	-4%	?	-9	-9.9%
CN(CC(=O)NCc1ccccn1)S(=O)(=O)c1ccc(Cl)cc1	-0.5	0	16%	-1%	-4%	22	-0.3%
Remaining list, next part.
SMILES	Menin-MLL FL inh	CtBP-E1A blk	gsp antagonist	Sfp inh	gsp ag	TRPV1 PAM	ClpP mod
CSCCC(NC(=O)COc1ccccc1)C(=O)NCCOc1ccc(C)cc1 (stereo not given)	.	-1	-3%	12%	?	-4	-1.8%
O=C(CCCc1ccccc1)NCc1ccc2c(c1)OCO2	-0.8	0	-16%	3%	-14%[15.4 µM]	-18	0.5%
O=C(CSc1nc2nccnc2c(=O)n1Cc1cccs1)Nc1ccccc1	.	-14	17%	-2%	-49%[inhibitor]	4	-0.5%
O=C(NC1CCCCC1)C(c1ccccc1F)N(Cc1ccco1)C(=O)c1ccccn1 (stereo not given)	0.3	-14	0%	20%	-2%[15.4 µM]	-1	.
O=C(NCC(O)c1ccccc1)c1ccccc1 (stereo not given)	-2.5	-3	-11%	9%	0%[15.4 µM]	.	-0.6%
CCc1noc(C)c1C(=O)NNC(=O)COc1ccccc1C	.	4	15%	.	6%	19	-1.2%
